RE007 growth inh – less growth of the S. pombe RE007 Vpr strain; S. pombe RE007 Vpr strain, BacTiter-Glo ATP luminescence, 24 h; control for the full effect not named in the record; 360,000 compounds, 0.21% hits; Potency, µM (highest dose often 92.2 µM), without a hit: top-dose activity change, negative = less growth; active = well fitted falling curve with a large enough effect; inconclusive = small, poorly fitted or top-dose-only effect; inactive = no such curve, though single readings can be large or run the other way;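 also: % is scaled to controls: 0 for no effect and ±100 for the full control effect; nearly all actives have a fitted effect of over 50% in size; the assay follows cell death caused by Vpr and the record does not say whether a fall means rescue or toxicity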
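Fission yeast strain RE007, carrying one chromosomally integrated HIV-1 vpr copy, was seeded at OD 0.01 in PMG+AL medium with 23 nL pinned compound. After 24 h at 30 °C and 99% humidity, viability was read by BacTiter-Glo luminescence.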
Marburg entry inh – blocks Marburg virus binding to or entry into cells | Potency, µM (series often up to 37.8 µM), without a hit: at the top dose activity change, negative = inhibition, usual class: inhibitors | AID 540276 | 300,000 compounds, 1.8% hits | Marburg virus pseudotyped entry inhibition, cell reporter; control for the full effect not named in the record; about a third of the inactives were read at about 46 µM; active = well fitted inhibition curve with a large enough effect; inconclusive = small, poorly fitted or top-dose-only effect, or effect the other way; inactive = flat fitted curve, though single readings scatter; tested in HEK293 cells; about a fifth of its hits are not listed in these tables; also: % is scaled to controls: 0 for no effect and ±100 for the full control effect; luciferase read-out
NS1 function inh – inhibitors of influenza NS1 protein function | Potency, µM (doses to about 46.1 µM), inactives show at the top dose activity, positive = more growth | AID 2326 | S. cerevisiae slowed by influenza A NS1, growth recovery by OD600 | 270,000 compounds, 0.4% hits; also: actives are rising curves; nearly all actives have a fitted effect of over 50% in size
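S. cerevisiae expressing influenza A NS1, grown in glucose, washed, then diluted 1:100 into pH 6.0 -URA galactose medium with 23 nl compound. Growth recovery read as OD600; NS1-free strain serves as control.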
LASV entry inh – blocks Lassa virus binding to or entry into cells | 300,000 compounds, 1.2% hits | Lassa virus pseudotype entry inhibition, cell reporter; control for the full effect not named in the record | Potency, µM (highest dose often 37.9 µM), inactives show top-dose activity change, negative = inhibition, most hits filed as inhibitors; active means well fitted inhibition curve with a large enough effect; inconclusive means small, poorly fitted or top-dose-only effect, or effect the other way; inactive means flat fitted curve, though single readings scatter; tested in HEK293 cells; also: % is scaled to controls: 0 for no effect and ±100 for the full control effect; nearly all actives have a fitted effect of over 50% in size; luciferase read-out
2A StopGo – FMDV 2A StopGo reporter, luciferase signal; human cells with a luciferase reporter of 2A StopGo recoding; control for the full effect not named in the record; Potency, µM (titrated, usually from 57.9 µM), for the others: at the top dose signal change, negative = less light; 410,000 compounds, 1.2% hits; AID 1159524; active = well fitted falling curve with a large enough effect; inconclusive = small, poorly fitted or top-dose-only effect; inactive = no such curve, though single readings can be large or run the other way; tested in HEK293T cells; also: % is scaled to controls: 0 for no effect and ±100 for the full control effect; nearly all actives have a fitted effect of over 45% in size; luciferase light after 4 h
Cruzain Triton – cruzain (T. cruzi) inhibition with detergent. P25779. purified cruzain, Z-FR-AMC fluorescence, 0.01% Triton. Potency, µM, inactives show max response, negative = inhibition, actives largely listed as inhibitors. 200,000 compounds, 0.43% hits; active = well fitted curve in the direction sought with a large enough effect; inconclusive = small, poorly fitted or top-dose-only effect, or another doubt; inactive = no such curve, though single readings can be large; an effect the other way counts as inactive or inconclusive;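 also: plate controls were neutral wells for no effect and buffer without enzyme for full effect; nearly all actives have a fitted effect of over 40% in size; top concentration of the series not given in the record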
Target sequence (P25779 123-467 limits assumed): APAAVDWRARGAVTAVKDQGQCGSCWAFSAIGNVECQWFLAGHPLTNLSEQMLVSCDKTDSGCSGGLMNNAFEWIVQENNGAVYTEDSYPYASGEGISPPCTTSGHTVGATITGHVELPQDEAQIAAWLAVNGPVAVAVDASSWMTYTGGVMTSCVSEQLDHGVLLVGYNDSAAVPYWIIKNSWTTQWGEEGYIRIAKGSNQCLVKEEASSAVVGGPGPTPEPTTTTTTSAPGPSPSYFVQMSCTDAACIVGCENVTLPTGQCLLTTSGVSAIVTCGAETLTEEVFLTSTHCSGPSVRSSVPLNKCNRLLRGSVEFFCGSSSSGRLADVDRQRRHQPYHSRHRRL
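Enzyme 1.5 nM, Z-FR-AMC 2 uM, NaOAc 100 mM pH 5.5, DTT 5 mM, Triton X-100 0.01%; 15 min RT compound preincubation; kinetic ex360/em450, 60 s delta.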
Cruzain inh noDet – inhibitors of Trypanosoma cruzi cruzain without detergent | AID 1476 | 200,000 compounds, 2.3% hits | purified cruzain, Z-FR-AMC fluorescence, no detergent | P25779 | Potency, µM, without a hit: max response, negative = inhibition, hits mostly inhibitors; active = well fitted curve in the direction sought with a large enough effect; inconclusive = small, poorly fitted or top-dose-only effect, or another doubt; inactive = no such curve, though single readings can be large; an effect the other way counts as inactive or inconclusive;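 also: plate controls were enzyme without inhibitor for no effect and buffer without enzyme for full effect; nearly all actives have a fitted effect of over 40% in size; top concentration of the series not given in the record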
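Detergent-free condition (0.00005% Triton X-100) in acetate buffer pH 5.5 with DTT. 1.5 nM enzyme and compound were pre-mixed 15 min, then 2 uM Z-FR-AMC substrate added; reaction progress from fluorescence change between first and third reads (60 s).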
SARS PLpro yeast – SARS-CoV PLP inhibition in yeast; S. cerevisiae expressing SARS-CoV PLpro, growth rescue; control for the full effect not named in the record; Potency, µM (titrated, usually from 32.9 µM), without a hit: at the highest dose activity, positive = growth rescue; 330,000 compounds, 0.19% hits; AID 485353; also: 0% is about no effect; nearly all actives have a fitted effect of over 55% in size; growth read by luminescence after 48 h
The depositor's hits bear a star; ? = inconclusive; / = not tested or not shown; & = joins results of further samples; [ ] = another dose, or the depositor's remark. Unless noted, calls follow the shape of the dose curve; as a rule, active means well fitted rising curve with a large enough effect; inconclusive means small, poorly fitted or top-dose-only effect; inactive means no such curve, though single readings can be large or run the other way. Potency is read from the fitted curve at half-maximal effect.

canonical_smiles,RE007 growth inh,Marburg entry inh,NS1 function inh,LASV entry inh,2A StopGo,Cruzain Triton,Cruzain inh noDet,SARS PLpro yeast
CCc1ccccc1NC(=O)c1ccc(NS(C)(=O)=O)cc1,6%,3%[46.1 µM],3%,22%[46.1 µM],-7%,/,/,0%
CC(=O)N1CC(C(=O)Nc2ccc3c(c2)OCO3)Oc2ccccc21 (stereo not drawn),16%,22%,/,?,29%,/,/,0%
COc1ccccc1NC(=O)Cn1cnc2c(nc3n2CCCCC3)c1=O,-16%,24%&24%[46.1 µM],-7%,?,?,/,/,?
O=C(CSc1nncc(=O)[nH]1)NCc1ccccc1,4%,22%[46.1 µM],3%,4%,-2%,/,/,0%
O=C(C1CCC(Cn2c(=O)c3sccc3n(Cc3ccccc3F)c2=O)CC1)N1CCOCC1 (stereo not drawn),/,/,/,1%[46.1 µM],-16%,-4.3%,?,/
CCOC(=O)N1CCC(NC(=O)c2ccc3c(Cl)c4c(nc3c2)CCCC4)CC1,21%,?,27%,?,?,-4.7%,?,-17%
COc1ccccc1CNC(=O)CCC(=O)Nc1nnc(C(C)C)s1,-4%,8%,-1%,-8%,51%[activator],-0.4%,-21%,3%
Cc1ccc(CNC(=O)C(c2ccccc2)c2ccccc2)cc1,-11%,-20%,13%,-1%,-17%,/,/,2%
CCn1ccc2cc(S(=O)(=O)N3CCCN(C(=O)NCC(C)C)CC3)ccc21,/,/,/,-17%[46.1 µM],-26%,-0.8%,5%,/
CC(C)(C)OC(=O)N1CCC(Cc2cc(-c3cccc(Br)c3)no2)(C(=O)O)CC1,-1%,/,-57%,/,-29%,/,/,-3%
CC(=O)N1N=C(c2ccc(Cl)cc2)OC1c1ccc(C(C)C)cc1 (stereo not drawn),-1%,1%,-43%,0%,35%[activator],-3.5%,-3%,-7%
O=C(Cn1cnc2ccccc21)NC(c1ccccc1)c1ccccc1,2%,-2%,4%,0%,12%,3.6%,-2%,3%
Cc1cc(C(=O)N/N=C/c2cccc(Cl)c2Cl)no1,20%,?,-10%,23%,65%[activator],-1.7%,-2%,-7%
O=C(C/C=N\OCc1ccc([N+](=O)[O-])cc1)Nc1ccc(Br)cc1,81%,-9%,0%,-3%[46.1 µM],-18%,/,/,-1%
COc1ccccc1CN1CCNC(=O)C1CC(=O)NC1Cc2ccccc2C1 (stereo not drawn),-16%,12%[46.1 µM],6%,4%,7%,/,/,0%
Cc1cc(NC(=O)c2cc3nc(C4CC4)cc(C(F)(F)F)n3n2)no1,4%,-2%,5%,6%,6%,-0.5%,5%,5%
CC(C)(C)c1ccc(C(CC(=O)O)NC(=O)CCCc2ccccc2)cc1 (stereo not drawn),-11%,1%[46.1 µM],/,1%[46.1 µM],-2%,/,/,3%
CC(C)OC(=O)CSc1n[nH]c(-c2cccnc2)n1,-20%,?,2%,1%,22%,-0.8%,16%,-2%
CCn1c(=O)c2cc(C(=O)Nc3cccc(C(F)(F)F)c3)sc2c2ccccc21,/,17%[46.1 µM],/,?,-23%,0.6%,5%,/
CC(C)Sc1nc2ccccc2c(=O)[nH]1,-13%[3.69 µM],3%,1%,-11%,12%,-0.8%,10%,6%
COc1ccc(NCC(=O)N/N=C/C(C)c2ccccc2)cc1 (stereo not drawn),8%,9%[46.1 µM],/,6%,-4%,/,/,0%
COc1cc(C)nc2nc(SCc3ccccc3)nn12,26%,?,-57%,14%,32%[activator],2.8%,5%,-2%
COc1cc(OC)c(OC)cc1CCC(C)NC(=O)Cc1ccccc1 (stereo not drawn),4%,/,1%,/,-1%,/,/,1%
CC(C)c1ccc(S(=O)(=O)N2CCN(CC(=O)Nc3ccccc3C(F)(F)F)CC2)cc1,/,/,/,7%[46.1 µM],-24%,1.4%,10%,/
O=[N+]([O-])c1cccc(-c2nc(Oc3ccc(Cl)cc3)c3ccccc3n2)c1,/,7%,7%,-1%,/,-2.3%,-2%,3%
Cc1cccc(NC(=O)CN2C(=O)N/C(=C/c3ccc(-c4cccc(C(=O)O)c4C)o3)C2=O)c1,0%,-1%[46.1 µM],1%,3%[46.1 µM],1%,/,/,0%
Cc1ccc(S(=O)(=O)CC(=O)Nc2nc3ccc(S(N)(=O)=O)cc3s2)cc1,14%,/,4%,/,-20%,/,/,-2%
O=C(Cn1cc(C(F)(F)F)ccc1=O)NC(c1ccccc1)c1ccccc1,-9%,1%,6%,-3%,4%,-0.9%,?,8%
C=CCNC(=O)c1ccccc1NC(=O)c1ccccc1C,10%,?,-11%,2%,-9%,-0.9%,1%,-24%
N#CC(=C(O)COC(=O)CCC1CCCCC1)c1nc2ccccc2[nH]1,2%,-6%,/,-11%,-16%,/,/,/
Cc1ccccc1C(=O)Nc1ccccc1C(=O)OCc1cc(=O)n2nc(C3CC3)sc2n1,/,/,/,14%[46.1 µM],11%,3.3%,-14%,/
Cc1cccc(CSc2nnc(NC(=O)c3ccco3)s2)c1,-2%,10%,-21%,3%,1%,-1.5%,?,-9%
O=c1cc(-c2cc3ccccc3o2)c2cc(O)ccc2o1,-6%,3%[46.1 µM],-8%,-21%[46.1 µM],-4%,/,/,-2%
Cc1csc(NC(=O)CCCSc2nc3ccccc3s2)n1,-31%,-2%,-50%,-7%,-28%,-8.4%,-20%,-16%
CCOc1ccc(NC(=O)c2ccc3c(=O)n4nc(Nc5ccccc5C)sc4nc3c2)cc1,/,/,/,23%[46.1 µM],-25%,1.3%,6%,/
COc1ccc(CNC(=O)C2CCN(S(=O)(=O)N3CCC(C)CC3)CC2)c(OC)c1,-13%,/,/,-17%[46.1 µM],-10%&-9%,1.1%,10%,/
CCn1c(C(=O)N2CCc3ccccc3C2)cc2sccc21,-1%,/,-72%,/,-6%,-8.0%,0%,-13%
Cc1cc(CN2CCN(CCC#N)CC2)c(O)c(C2(C)CCCCC2)c1,-14%,?,-138%,?,-26%,-16%,?,0%
Cc1nc(NC(=O)CSc2nc3cccnc3n2C2CCCCC2)sc1C,-4%,-10%[46.1 µM],-5%,-18%,-24%,-4.3%,?,3%
O=C1CCC(C(=O)Nc2ccc(OC(F)F)cc2)N1 (stereo not drawn),2%,-4%,-1%,9%,-13%,3.7%,1%,16%
CCN(C(=O)c1coc(=O)c(Br)c1)c1ccc2c(c1)OCO2,-13%,3%,23%,-25%,7%,-15%,-13%,-6%
COCCCNC(=O)c1ccc(CN2CCc3ccccc3C2)cc1,16%,/,4%,/,-18%,/,/,0%
O=C1CCC(C(=O)OC(C(=O)c2c[nH]c3ccccc23)c2ccccc2)=NN1 (stereo not drawn),1%,-1%,9%,2%,0%,-2.5%,-10%,6%
CC(=O)NC1CC2CCCC(C1)N2C(=O)Nc1ccc(Cl)c(C(F)(F)F)c1 (stereo not drawn),-5%,3%,-8%,-2%,-17%,-1.8%,0%,-3%
CCNC(=S)N(Cc1c(C)noc1C)c1ccccc1,-23%,34%,1%,9%,-3%,3.1%,-3%,0%
Cc1nc(Nc2ccc3c(c2)OCO3)c2oc3ccccc3c2n1,0%,39%,9%,3%,23%,-4.0%,-8%,-2%
Cc1ccc(N2C(=O)NC(C(F)(F)F)(C(F)(F)F)C3=C2CC(C)(C)CC3=O)cc1,11%,23%,3%,-21%,-1%,2.8%,-3%,6%
Cc1cccc(NC(=O)/C(C#N)=C\c2cc(C)n(-c3ccc(C(=O)O)cc3)c2C)c1,8%,/,4%,/,-14%,/,/,0%
COc1ccccc1N1CCN(S(=O)(=O)CCNC(=O)C2CC2)CC1,-3%,-10%[46.1 µM],/,0%,-15%,/,/,1%
CCOc1ccc(C(=O)NC(=S)Nc2ccccc2N2CCCCC2)cc1[N+](=O)[O-],7%,?,?,?,-23%,-3.0%,?,3%

Additional records follow:
canonical_smiles,RE007 growth inh,Marburg entry inh,NS1 function inh,LASV entry inh,2A StopGo,Cruzain Triton,Cruzain inh noDet,SARS PLpro yeast
CC(=O)N1CCn2c3c(c4cc(C)ccc42)CCCC31 (stereo not drawn),5%,/,-35%,/,11%,/,/,-1%
Cc1ccnc(SCc2cc(=O)c(OC(=O)c3ccc(S(=O)(=O)N(C)C)cc3)co2)n1,5%,14%,-2%,-18%,-14%,-1.6%,1%,-29%
Cn1cc(CN2CCCCC2c2ccccn2)c(-c2ccc3c(c2)OCCO3)n1 (stereo not drawn),-1%,?,4%,12%[46.1 µM],-6%,/,/,0%
COc1ccc(-n2ncc(S(=O)(=O)c3ccccc3)c2-c2ccc(Cl)cc2)cc1,-5%,?,15%,?,?,2.8%,-5%,-18%
Cc1cccc(-n2c(SCc3cc(=O)n4ccsc4n3)nc3ccccc3c2=O)c1,4%,2%,-3%,-17%,-23%,-2.0%,1%,10%
CSc1ccc(NC(=O)NCc2cccnc2)cc1,3%,?,4%,?,67%[activator],/,/,-1%
CC(C)OCC(O)Cn1c(N2CCCC2)nc2c1c(=O)[nH]c(=O)n2C (stereo not drawn),14%,-10%,-2%,-5%,/,4.3%,-2%,2%
Cc1ccc2nc(N3CCN(c4cccc(C(F)(F)F)c4)CC3)c3nnnn3c2c1,/,/,/,-8%[46.1 µM],-23%,-0.8%,10%,/
COc1ccccc1NC(=O)CSC1=Nc2ccccc2N=C(c2ccc(F)cc2)C1,/,/,/,8%[46.1 µM],-17%,0.4%,7%,/
Oc1ccc(N2CCN(Cc3c(-c4ccccc4)nc4ccccn34)CC2)cc1,-5%,-16%[46.1 µM],-12%,7%,-13%,/,/,-7%
CCCCOC(=O)c1cccc(NC(=O)c2cc3ccccc3o2)c1,/,/,/,5%[46.1 µM],-28%,-7.8%,-10%,/
CCOCCCn1c(SC(C(=O)Nc2cc(C)ccc2C)c2ccccc2)nnc1-c1ccc(Cl)cc1 (stereo not drawn),-9%,?,?,?,-7%,-4.2%,?,-18%
O=C(Nc1ccccn1)c1ccc(CN(c2ccccc2)S(=O)(=O)c2ccccc2)cc1,4%,?,/,?,8%,/,/,-1%
O=C(CCCN1C(=O)/C(=C/c2ccc3c(c2)OCO3)SC1=S)Nc1cccc(C(=O)O)c1,10%,/,-10%,/,-10%,/,/,0%

Assay outcomes as filed in PubChem BioAssay.
